Screening data: PubChem, National Center for Advancing Translational Sciences (NCATS)
miR-21 reporter: qHTS Assay for Modulators of miRNAs and/orActivators of miR-21 | HeLa miR-21 FLuc reporter, luciferase, 48 h | Potency, µM (titrated, usually from 38.3 µM), for inactives: at the highest dose reporter change, positive = more light | 340,000 tested, under 10 active | AID 2288, 2010; active = well fitted rising curve with a large enough effect; inconclusive = small, poorly fitted or top-dose-only effect; inactive = no such curve, though single readings can be large or run the other way;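 note: % of control where 0% means no effect; miR-21 action dims this reporter so a rising signal means less miR-21 action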
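Compounds were titrated across several concentrations (up to approximately 40 uM) and incubated 48 hours with HeLa miR-21-FLuc reporter cells (miR-21 target sequence downstream of FLuc, endogenous miR-21). Readout was firefly luciferase luminescence after lytic detection reagent.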
GLA inh pH 4.5: qHTS Assay for Inhibitors of Human alpha-Galactosidase at pH 4.5. Alpha-galactosidase A (Homo sapiens), P06280. purified enzyme, 4-MU-alpha-Gal fluorescence, pH 4.5. 230,000 tested, under 10 active. activity change, negative = inhibition, % at 105 µM; inconclusive = small, poorly fitted or top-dose-only inhibition, or a rising curve; inactive = flat fitted curve, though single readings scatter; no compound was filed as active;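 note: 0% = full activity with enzyme and -100% = basal without enzyme; dose as in the result columns while the protocol names 77 µM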
Target sequence (P06280 whole entry, looked up): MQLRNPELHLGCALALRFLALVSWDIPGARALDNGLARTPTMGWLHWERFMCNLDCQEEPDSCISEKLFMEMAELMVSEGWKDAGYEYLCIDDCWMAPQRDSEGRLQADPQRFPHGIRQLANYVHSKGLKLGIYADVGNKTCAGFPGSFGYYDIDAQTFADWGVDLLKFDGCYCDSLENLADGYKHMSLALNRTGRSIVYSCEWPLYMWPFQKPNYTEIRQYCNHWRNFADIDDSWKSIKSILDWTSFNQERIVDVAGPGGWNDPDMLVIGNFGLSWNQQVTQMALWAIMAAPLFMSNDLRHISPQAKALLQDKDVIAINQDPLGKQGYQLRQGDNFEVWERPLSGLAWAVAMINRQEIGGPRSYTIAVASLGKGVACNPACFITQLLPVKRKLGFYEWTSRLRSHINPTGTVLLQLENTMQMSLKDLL
Rango release inh: qHTS Assay for Inhibitors of RanGTP induced Rango (Ran-regulated importin-beta cargo) - Importin beta complex dissociation | Snurportin-1 (Homo sapiens) + GTP-binding nuclear protein Ran (Homo sapiens) + Importin … | Biochemical FRET Rango-importin beta, RanGTP-induced dissociation | Potency, µM (titrated, usually from 46.1 µM), for the others: at the top dose activity change, negative = inhibition | hit rate 0.071% among 340,000 | AID 540253, 2011; active means falling FRET ratio curve, often poorly fitted, with flat reads before Ran was added; inconclusive means other falling curves, or compound fluorescence or quenching; inactive means flat or rising ratio curve;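 note: potency is the fitted concentration of half-maximal effect; % of control where 0% means no effect; nearly all actives have a fitted effect of over 45% in size; -100% = wells without RanGTP and RCC1; the record marks most hits as doubtful in a second field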
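Rango (0.1 uM)–importin beta (0.25 uM) complex; RanGTP-RCC1 trigger; 45 min RT; CFP/YFP FRET read.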
Rango-impB inh: qHTS Assay for Inhibitors of Rango (Ran-regulated importin-beta cargo) - Importin beta complex formation; Importin subunit beta-1 (Homo sapiens), Q14974; Rango CFP/YFP FRET sensor + importin beta, 45 min; Potency, µM (highest dose often 92.2 µM), without a hit: top-dose inhibition of complex formation; hit rate 0.031% among 340,000; AID 540263, 2011; active = rising FRET ratio curve, often small or poorly fitted; inconclusive = mostly compound fluorescence or quenching in the first reads; inactive = flat curves in all reads;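 note: potency is the fitted concentration of half-maximal effect; 0% = DMSO wells and 100% = buffer wells lacking importin beta; nearly all actives have a fitted effect of over 15% in size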
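Inhibition scored from the CFP 486 nm/YFP 530 nm FRET ratio 45 min after adding 0.125 microM importin beta to 50 nM Rango biosensor preincubated 5 min with compound (room temperature, PBS with DTT, Tween-20, BSA). No-importin wells as positive control.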
The depositor's hits bear a star; u = inconclusive; x = not tested or not shown; & = joins results of further samples. A portion of the library, so the mix of outcomes need not match the whole.

item | canonical_smiles | miR-21 reporter | GLA inh pH 4.5 | Rango release inh | Rango-impB inh
1 | Cc1ccc(-c2nnc3cccc(Cl)n23)cc1 | -15% | -4 | 15% | u
2 | COc1ccc(Nc2nc(-c3cccc(OC)c3O)nc3ccccc23)cc1 | 1% | x | -6% | -1.9%
3 | COC(=O)c1c(C)oc2ccc(N(C(=O)Oc3ccccc3)S(=O)(=O)c3ccccc3)cc12 | 1% | -1 | 4% | -2.4%
4 | COc1ccc(S(=O)(=O)Nc2cccc(S(=O)(=O)NC3=NCCC3)c2)cc1[N+](=O)[O-] | x | x | 7% | -0.7%
5 | NS(=O)(=O)c1ccc(CNC(=O)c2cc(-c3cccs3)nc3ccccc23)cc1 | 9% | 19 | u | 0.2%
6 | Brc1ccccc1-n1nnc(-c2cnc3ccccc3c2)n1 | x | x | -3% | -1.1%
7 | Cc1ccc(NC(=O)C(=O)NCCN2CCN(C(=S)Nc3ccccc3)CC2)cc1 | 1% | 1 | 4% | 2.0%
8 | COC(=O)c1ccc(CSc2nc(C(F)(F)F)c3c(c2C#N)CCC3)o1 | -8% | 8 | 2% | 0.1%
9 | Cc1ccc2c(c1)N(CC(=O)NC1CCCC(C)C1C)C(=O)c1cccnc1O2 (stereo not given) | 2% | x | 5% | 0.3%
10 | COc1ccc(C2=NOC(C(=O)N3CCCCCC3)C2)cc1OC (stereo not given) | -13% | 2 | -1% | -0.6%

(next part)
item | canonical_smiles | miR-21 reporter | GLA inh pH 4.5 | Rango release inh | Rango-impB inh
11 | O=C(CNC(=O)c1ccco1)Nc1ccncc1 | x | x | 0% | 4.7%
12 | CN(CCCNC(=O)c1cn(C)c2ccc(S(=O)(=O)N(C)C)cc2c1=O)c1ccccc1 | -16% | -5 | 1% | -2.1%
13 | Cc1cccc(C2=NN(c3ccccc3)[C@@H](C(=O)N3CCOC3=O)[C@@H]2c2ccc(Cl)cc2)c1 | x | -1 | u | u
14 | COc1ccc(CCNC(=O)C2(C)CCC(=O)N2Cc2ccc(F)cc2Cl)cc1OC (stereo not given) | 0% | x | 4% | -1.0%
15 | Cn1c2ccccc2c2cnn(CC(=O)N3CCCCC3)c(=O)c21 | -23% | -2 | 1% | -3.0%
16 | Cc1cc(C)c(S(=O)(=O)CCC(C)C)c(=O)[nH]1 | 0% | 8 | -17% | -0.1%
17 | COC(=O)/C=C1/N/C(=N\c2nc(C)cc(C)n2)N(c2ccc(Cl)cc2)C1=O | -13% | -11 | 3% | -2.8%
18 | Cn1cnc(S(=O)(=O)NC2CCN(Cc3ccccc3)CC2)c1 | -2% | x | 0% | -1.6%
19 | Cc1ccccc1NC(=O)Cc1nnc(SCc2ccc(Cl)c(Cl)c2)n1C | 2% | 2 | -1% | -1.6%
20 | CC(=O)c1cccc(NC(=O)C2CCCC2)c1 | -9% | 3 | -6% | -0.2%

Continuation.
item | canonical_smiles | miR-21 reporter | GLA inh pH 4.5 | Rango release inh | Rango-impB inh
21 | O=C(CN1CCN(Cc2ccc(Cl)cc2)CC1)N/N=C/c1cccs1 | 0% | -3 | 1% | 4.1%
22 | O=C(Nc1ccc2c(c1)OCO2)C(c1ccc(Cl)cc1)N1CCN(C(=O)c2ccco2)CC1 (stereo not given) | -1% | -7 | 6% | -2.6%
23 | COc1ccc(CCn2c(C)cc(C(=O)CSc3nnc(N)s3)c2C)cc1 | 10% | x | 2% | 1.9%
24 | COc1ccc(C2C(C(=O)N3CCN(c4ccccn4)CC3)CCC(=O)N2c2cc(OC)c(OC)c(OC)c2)cc1 (stereo not given) | 1% | 1 | 6% | 1.5%
25 | C=CCNCCCOc1ccc(C(C)(C)c2ccccc2)cc1 | 3% | -15 | 2% | -2.5%
26 | O=C(OCC(=O)N1CCCC1=O)c1cccc([N+](=O)[O-])c1 | -3% | x | 10% | 1.6%
27 | COc1ccc(COc2cccnc2N)cc1 | -42% | -3 | -12% | -1.5%
28 | CC(C)(C)c1cc2cccnc2n1Cc1ccccc1 | 11% | -5 | 13% | -4.7%
29 | COc1ccc(NC(=O)[C@@H](NC(=O)N2C[C@H]3C[C@@H](C2)c2cccc(=O)n2C3)C(C)C)cc1OC | 2% | x | -15% | u
30 | Cc1ccc(Nc2cc(C)c3ccc(O)cc3n2)cc1C | -28% | -2 | u | u

(listing goes on)
item | canonical_smiles | miR-21 reporter | GLA inh pH 4.5 | Rango release inh | Rango-impB inh
31 | Cn1c(N2CCN(C(=O)C34CC5CC(CC(C5)C3)C4)CC2)nc2ccccc21 | -3% | -6 | x | x
32 | Cc1ccc(N(CC(=O)NCc2ccncc2)S(C)(=O)=O)cc1Cl | -2% | -11 | 10% | u
33 | CCC(=O)N1c2ccc(S(=O)(=O)N3CCN(c4ccccc4Cl)CC3)cc2CC1C (stereo not given) | 4%&8% | x | 18% | 2.5%
34 | Cc1cc(Oc2ccccc2)nc2ccc(O)cc12 | -36% | 20 | x | x
35 | CSc1ccc(C(=O)C2CCCN(C(=O)CCn3cncn3)C2)cc1 (stereo not given) | 0% | x | 5% | 0.4%
36 | Cc1ccc(/C=C2\SC(=S)N(CC3CCCO3)C2=O)o1 (stereo not given) | -12% | 0 | -4% | 0.5%
37 | CC1CCN(c2nc(CN3CCCCC3)nc3scc(-c4ccccc4)c23)CC1 | -6% | -19 | -5% | 2.2%
38 | CCNC(=O)COC(=O)c1ccc(-n2nc(C)cc2C)cc1 | -1% | -11 | -6% | 0.3%
39 | OCCNC(=S)NCCc1ccccc1 | -10% | -1 | u | 0.1%
40 | O=C(CN1CCOCC1)NN1CC(=O)N(c2ccc(Cl)cc2)CC1=O | -9% | 2 | 5% | 1.4%

Later entries:
item | canonical_smiles | miR-21 reporter | GLA inh pH 4.5 | Rango release inh | Rango-impB inh
41 | COc1ccc(CCNC(=O)CSCc2ccc([N+](=O)[O-])cc2)cc1 | -5% | -2 | -22% | -1.9%
42 | CNC(=O)c1csc(-c2ccc(Cl)cc2)n1 | -45% | 4 | 1% | 1.0%
43 | COc1ccc(Nc2nc3ccccc3c(=O)[nH]2)cc1 | -14% | 4 | 26% | -0.6%
44 | Cc1ccccc1NS(=O)(=O)c1cc(C(=O)Nc2ccccc2-c2ccccc2)ccc1Cl | 5% | -2 | -15% | 0.6%
45 | CC(C)(C)NC(=O)COC(=O)C1c2ccccc2Oc2ccccc21 | 0% | x | -2% | -2.1%
46 | CCOC(=O)c1cnn(-c2c(Cc3ccccc3)c(C)nc3c(-c4ccccc4)c(C)nn23)c1N | -6% | 7 | -5% | 0.0%
47 | CCOC(=O)C1CCN(S(=O)(=O)c2cccc(-c3cn4cccc(C)c4n3)c2)CC1 | 8% | -8 | 6% | -1.3%
48 | CCOC(=O)c1cnc(-c2ccccc2)nc1Oc1ccc(Cl)c(Cl)c1 | -2% | 7 | -7% | 4.0%
49 | CC(=O)Nc1ccc2nc(NC(=O)c3ccco3)sc2c1 | -19% | x | 4% | -0.1%
50 | CCN(CC)S(=O)(=O)c1ccc2oc(SCC(=O)NCc3ccccc3)nc2c1 | -8% | -7 | -1% | -1.7%

New compounds follow
item | canonical_smiles | miR-21 reporter | GLA inh pH 4.5 | Rango release inh | Rango-impB inh
51 | CC(=O)Nc1cc2c(cc1Cl)-c1ccccc1C2O (stereo not given) | x | x | -6% | -0.5%
52 | O=C(O)c1ccc(Nc2ccc3nonc3c2[N+](=O)[O-])cc1 | -1% | x | 17% | 4.6%
53 | CN1/C(=C\C(=O)c2cccc([N+](=O)[O-])c2)Sc2ccccc21 | -67% | x | 11% | 6.3%
54 | CCOC(=O)c1c(C)[nH]c(C(=O)OCC(=O)N(CC(C)C)C2CCS(=O)(=O)C2)c1C (stereo not given) | x | x | 0% | 0.1%
55 | O=C(CNC(=O)c1ccccc1)NCCCSc1ccccc1 | x | x | 0% | 1.6%
56 | Nc1c(C(=O)NCCN2CCOCC2)c2nc3ccccc3nc2n1CCc1ccccc1F | 14% | 25 | u | u
57 | Cc1cc2cc(OCC(=O)O)ccc2n1C | -1% | 0 | -13% | 6.7%
58 | Cc1ccc(C(=O)OCC(=O)N(C)c2c(N)n(Cc3ccccc3)c(=O)[nH]c2=O)s1 | x | x | -7% | -2.5%
59 | COc1ccc(NCC(=O)N2CCCC2)cc1Cl | -1% | 3 | 1% | -1.1%
60 | Cc1ccc(CC(=O)c2ccc(Cl)cc2)cc1 | -44% | 0 | 0% | 1.9%

Continuation:
item | canonical_smiles | miR-21 reporter | GLA inh pH 4.5 | Rango release inh | Rango-impB inh
61 | CCOc1c(Br)ccc2c1sc1nc[nH]c(=O)c12 | 0% | 2 | 36% | 2.9%
62 | O=C(OCc1cc(=O)oc2cc(O)ccc12)c1cc(S(=O)(=O)N2CCOCC2)ccc1F | x | x | u | u
63 | CC(C)CCN1CCN(Cc2cccc(C(F)(F)F)c2)CC1CCO (stereo not given) | -4% | 2 | -5% | 4.0%
64 | CC(CC(=O)Nc1ccc(F)cc1F)S(=O)(=O)c1ccc2c(c1)NC(=O)CO2 (stereo not given) | 5% | x | 10% | 0.7%
65 | Cc1ccc(CN(C(=O)C(F)(F)F)C(C(=O)NC2CCCCC2)c2ccco2)cc1 (stereo not given) | 2% | -3 | 3% | 0.0%
66 | O=S(=O)(NCCCN1CCOCC1)c1ccc2c(c1)OCCO2 | 0% | 5 | 9% | 9.6%
67 | C(=N\Nc1nc(Nc2ccccc2)nc(N2CCOCC2)n1)/c1c[nH]c2ccccc12 | -14% | 1 | -25% | -5.0%
68 | CCN(CC)CCC(c1cc(OC)c(OC)c(OC)c1)c1c(OC)cc(OC)c2c(C)cc(=O)oc12 (stereo not given) | 12% | -9 | -4% | -1.1%
69 | O=C(CSc1nnc(-c2ccccn2)n1Cc1ccccc1)N1CCOCC1 | -2% | -19 | 3% | 1.3%
70 | C=CCn1c(C)cc(-c2csc(NC(=O)CCc3nc4ccccc4c(=O)[nH]3)n2)c1C | x | x | -15% | 5.0%

(next part)
item | canonical_smiles | miR-21 reporter | GLA inh pH 4.5 | Rango release inh | Rango-impB inh
71 | O=C(CSc1nccn1-c1ccccc1)NCc1ccc2c(c1)OCO2 | -7% | 3 | 18% | -4.2%
72 | Cc1ccc(S(=O)(=O)NCCC(=O)N2CCCCC2)cc1 | -1% | -1 | x | x
73 | CCOC(=O)C1CCCN(C(=O)c2cccc(S(=O)(=O)N(C)c3ccc(C)cc3)c2)C1 (stereo not given) | x | x | -7% | -2.8%
74 | COC(/C(=N/O)c1ccc(Cl)cc1)c1ccccc1 (stereo not given) | -3% | x | 0% | -0.3%
75 | Cc1cccc(NC(=O)C(C)n2cc([N+](=O)[O-])cn2)n1 (stereo not given) | -1% | 15 | 20% | -2.3%
76 | CCCCc1ccc(S(=O)(=O)NC2CCS(=O)(=O)C2)cc1 (stereo not given) | 13% | -15 | 1% | -0.9%
77 | CC(=O)c1cccc(OCC(O)CNCCOc2ccc(C)cc2)c1 (stereo not given) | -8% | x | -18% | 1.2%
78 | Cc1cc(CNC(=O)C2CCC(=O)N(Cc3cccc(C(F)(F)F)c3)C2)no1 (stereo not given) | 0% | x | -9% | -0.2%
79 | CCOC(=O)C1CCN(C(=O)c2ccc3c(c2)NC(=O)/C(=C\c2ccc(C)cc2)S3)CC1 | -2% | x | -8% | 0.8%
80 | Cc1ccc(N2CCN(C(=S)Nc3ccccc3)CC2)cc1 | -1% | 1 | 23% | -3.0%
81 | COc1ccc(OC)c(CCNC(=O)C(C)n2nc(C)c3c(C)n(-c4ccc(C)cc4)nc3c2=O)c1 (stereo not given) | u | x | -6% | 3.1%
82 | Cc1csc(=NC(=O)c2ccccc2)n1C | -53% | -5 | 1% | 2.1%
83 | CC(O)(c1ccccc1)C(c1ccccc1)C1CCCCN1 (stereo not given) | 1% | -1 | 2% | -0.3%
